Source: PubChem
MgrA-DNA mod: S. aureus MgrA-DNA binding modulation; inhibition, %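 (about 10 µg/mL by stock and volumes)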; 84,000 tested, 0.13% active; fluorescence polarization;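 active = above 50% in either of two replicates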;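 also: 0% = protein plus DNA without compound and 100% = DNA alone without protein; higher means less MgrA bound to DNA so lower polarization; one replicate is shown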
Sa helicase inh: blocks Staphylococcus aureus DNA helicase | inhibition, %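 (tested at about 80 µM)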 | purified S. aureus helicase, fluorescence unwinding assay; about half of the hits fall short of the stated cut | 120,000 tested, 0.05% active;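 active = both duplicates at 50% or more, or one of them with a favoured structure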;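 also: 0% = mean of negative control wells and 100% = mean of positive control wells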
* = called active by the depositor. Only part of the results is shown (hit frequency here may not be typical).

`O=C(CSc1nnc(-c2ccc(Cl)cc2Cl)n1Cc1ccco1)c1ccc[nH]1` gave Sa helicase inh -5.
Screening CC1=NN(c2ccccc2)C(=O)/C1=C/c1ccc(OCc2ccccc2)cc1 returned MgrA-DNA mod 0.2.
Cc1ccc(Cl)cc1N1CCN(C(=O)c2ccccc2N(Cc2ccccc2)S(C)(=O)=O)CC1 was read as MgrA-DNA mod 0.7 and Sa helicase inh 8.
Screening N#Cc1c(-c2ccco2)cc(-c2cccc(S(=O)(=O)N3CCCCC3)c2)n2c1nc1ccccc12 returned Sa helicase inh -102.
For CCN(CC)C(=O)C1CCN(S(C)(=O)=O)CC1 the results were MgrA-DNA mod 1.2 and Sa helicase inh -4.
`COc1ccc(C2=NN(CC(=O)NCc3ccc(C)cc3)C(=O)CC2)cc1` gave MgrA-DNA mod 0.3 and Sa helicase inh -4.
For O=C(c1nsc2ccccc12)N1CCCCC1 the results were MgrA-DNA mod 0.4 and Sa helicase inh -12.
COc1ccc(CCC(=O)Nc2cc(Cl)ccc2Sc2nncn2C)cc1 was read as Sa helicase inh -11.
NC(=O)Cn1cnc2ccccc21 was read as Sa helicase inh -24.
For CC(NC(=O)CSc1n[nH]c(N)n1)C1CC2CCC1C2 (configuration not stated) the results were Sa helicase inh -9.
For C=CCn1c(C)cc(C(=O)COC(=O)C2CC(=O)N(Cc3ccccc3)C2)c1C (configuration not stated) the results were Sa helicase inh 6.
O=C(Cn1nnc(-c2ccccc2Br)n1)N(Cc1ccccc1)C1CCS(=O)(=O)C1 (configuration not stated) was read as Sa helicase inh 19.
For CCCOc1ccc(C2C3=C(CC(C)(C)CC3=O)Nc3ccccc3N2C(=O)C(F)(F)F)cc1OC (configuration not stated) the results were MgrA-DNA mod 1.8.
Screening Cc1cc(=O)n(CC(C)O)c(O)c1C#N (configuration not stated) returned MgrA-DNA mod 2.0 and Sa helicase inh 4.
Screening COc1ccccc1Oc1ccc(S(=O)(=O)N2CCOCC2)cc1 returned Sa helicase inh 25.
For C=CCn1cc(C(=O)NCCN2CCCCCC2)c(=O)c2cc(S(=O)(=O)N(CC)CC)ccc21 the results were MgrA-DNA mod -2.0 and Sa helicase inh -2.
Screening CC(=O)N1CCc2cc(N=NC3=C(O)CCCC3=O)ccc21 returned Sa helicase inh -20.
`O=C(Nc1ccc(Br)cc1)c1cnc2ccccn2c1=O` gave Sa helicase inh -9.
Screening C=CCNC(=O)c1ccncc1 returned Sa helicase inh 3.
Screening CCNCC(=O)Nc1ccc(S(N)(=O)=O)cc1 returned Sa helicase inh -8.

Already shown: two of the compounds above.
`O=C(CSc1nnc(-c2ccc(Cl)cc2Cl)n1Cc1ccco1)c1ccc[nH]1` gave Sa helicase inh -5.
Screening CC1=NN(c2ccccc2)C(=O)/C1=C/c1ccc(OCc2ccccc2)cc1 returned MgrA-DNA mod 0.2.

Next part.
Cc1oc(C(C)(C)C)c(CN2CCOCC2)c1C(=O)O was read as MgrA-DNA mod -0.7 and Sa helicase inh -14.
`Cc1ccc(S(=O)(=O)Oc2ccc(C)nc2[N+](=O)[O-])cc1` gave MgrA-DNA mod 0.2.
Screening Cc1ccc(Cn2c(=O)n(Cc3ccccc3)c(=O)c3c4c(sc32)CCC4)cc1 returned MgrA-DNA mod 0.2 and Sa helicase inh -6.
`Nc1cccc(-c2nc3cc(Cl)ccc3o2)c1` gave Sa helicase inh -37.
`COc1ccc(Cl)cc1-n1c(SCc2ccccc2F)nnc1-c1cc2occc2n1C` gave Sa helicase inh 19.
O=C(CCc1nc2cccnc2n1Cc1cccs1)NCc1ccc2c(c1)OCO2 was read as Sa helicase inh -37.
`CCc1nn(CC(=O)N2CCC(C(N)=O)CC2)c(=O)c2cc3sccc3n12` gave MgrA-DNA mod 1.3 and Sa helicase inh -13.
For CN(C)C(=O)c1ccccc1NS(=O)(=O)c1ccc(F)cc1 the results were Sa helicase inh -1.
For CCOC(OCC)n1c(=S)n(C(OCC)OCC)c2ccccc21 the results were Sa helicase inh 19.
Cc1[nH]nc2c1C(c1cccc3ccccc13)CC(=O)N2 (configuration not stated) was read as Sa helicase inh 21.
`CC(=O)NCc1c(N(C)C)cccc1N(C)C` gave MgrA-DNA mod 1.1.
Screening COc1ccccc1NC(=O)COC(=O)c1ccccc1Br returned MgrA-DNA mod -1.6 and Sa helicase inh 3.
For O=C(CCSCc1ccccc1F)NCc1cccnc1 the results were Sa helicase inh 8.
Screening O=C(COC(=O)c1ccc[nH]c1=O)NCC12CC3CC(CC(C3)C1)C2 returned Sa helicase inh -9.
CC(C(=O)OCC(=O)c1ccccc1)N1C(=O)C2C3C=CC(C3)C2C1=O (configuration not stated) was read as MgrA-DNA mod 1.2 and Sa helicase inh 5.
Screening CC(O)C(Nc1ccccc1CC(=O)OC(C)(C)C)C(=O)O (configuration not stated) returned MgrA-DNA mod -4.7.
`CC(C)(C)NC(=O)CSc1ccc(Cl)cc1` gave MgrA-DNA mod -2.0 and Sa helicase inh -2.
FC(F)(F)c1cccc(N2CCNC2=S)c1 was read as MgrA-DNA mod 3.8.
`CNC(=O)/C(=C\c1ccc(OC)cc1)NC(=O)c1ccccc1` gave MgrA-DNA mod -2.0 and Sa helicase inh 16.
`O=c1[nH]cc(COCc2ccccc2)c(=O)[nH]1` gave MgrA-DNA mod -2.8 and Sa helicase inh 13.
`N#Cc1cnn(S(=O)(=O)c2ccc(Cl)cc2)c1C1CC1` gave MgrA-DNA mod -0.6.
O=C1c2ccccc2N(Cc2ccc(Cl)cc2)C2=NCCN12 was read as MgrA-DNA mod 0.1 and Sa helicase inh 7.
For CCN(CC)C(=O)c1cccc2c1C(=O)c1ccccc1-2 the results were MgrA-DNA mod 3.5.
Cc1c(C(=O)NCCN(C)C)oc2ccc(S(=O)(=O)N3CCCC3)cc12 was read as Sa helicase inh 20.
Screening Cc1nc2ccc(Br)cn2c1NC(C)(C)C returned MgrA-DNA mod -0.4 and Sa helicase inh 14.
Fc1ccc2c(c1)CN(c1ccccc1F)CO2 was read as MgrA-DNA mod -2.3 and Sa helicase inh 6.
CCCn1c(NCCCN(CC)CC)nc2ccccc21 was read as MgrA-DNA mod 2.3 and Sa helicase inh 12.
For COc1ccccc1-n1cnnc1SCc1cccc(Cl)c1 the results were Sa helicase inh -19.
`Cc1cc(C(=O)CSc2nnc(N)s2)c(C)n1CCc1ccc(Cl)cc1` gave Sa helicase inh -6.
For COc1ccc(NC(=O)CN2CCC(C)CC2)cc1 the results were MgrA-DNA mod 0.1 and Sa helicase inh 13.
Screening CCCOc1ccc2cc(S(=O)(=O)N3CCCC3)ccc2c1 returned Sa helicase inh -1.
`CN(C)/C=C\c1ccnc(-c2cc(/C=C\N(C)C)ccn2)c1` gave MgrA-DNA mod 4.7.
Screening Nc1ccccc1SCC(=O)N1CCc2ccccc21 returned MgrA-DNA mod 4.3 and Sa helicase inh 18.
For COc1ccc(C(=O)NCCC(C)C)cc1 the results were MgrA-DNA mod -1.0 and Sa helicase inh -29.
`NC(=S)c1sccc1CS(=O)c1ccc(Cl)cc1` (configuration not stated) gave MgrA-DNA mod 2.0.
Screening CCOc1cc(C#N)ccc1OCC(=O)N1c2ccccc2NC(=O)CC1C (configuration not stated) returned Sa helicase inh -6.
Screening CC12CCC(C(=O)N(CC#N)CC#N)(OC1=O)C2(C)C (configuration not stated) returned MgrA-DNA mod -1.6 and Sa helicase inh 3.
Screening COc1cc(Cl)cc(/C=N/n2c(-c3ccc(C)cc3)n[nH]c2=S)c1O returned MgrA-DNA mod 1.7 and Sa helicase inh 14.
`O=C(O)COc1ccc(C2C3=C(CCCC3=O)OC3=C2C(=O)CCC3)cc1` gave Sa helicase inh 2.
For COc1ccccc1CNC(=O)Cn1cccc1 the results were MgrA-DNA mod 0.9 and Sa helicase inh 13.
For CCCc1cc(=O)oc2cc(OCC)ccc12 the results were Sa helicase inh 16.
Screening O=C(O)COc1ccc(C2SCCCS2)cc1 returned Sa helicase inh 9.
CCCc1nc(=S)[nH][nH]1 was read as Sa helicase inh -15.
Screening CC(C)(C)CC(=O)NCc1nc(-c2ccccc2)no1 returned MgrA-DNA mod -0.3 and Sa helicase inh 7.
Screening Cc1cc(NC(=O)Nc2scc(S(=O)(=O)c3ccc(Cl)cc3)c2C)on1 returned Sa helicase inh 1.
For Cc1noc(C)c1COc1ccc2c(C)cc(=O)oc2c1 the results were Sa helicase inh -10.
`Cc1ccc(-c2nnn(CC(=O)C(C)(C)C)n2)cc1Cl` gave MgrA-DNA mod -1.5.
NNC(=S)Nc1ccccc1Cl was read as MgrA-DNA mod -0.1.
Screening CC(C)(C)C(=O)CSc1nnc(Cc2ccccc2F)n1N returned Sa helicase inh -5.
For CS(=O)(=O)N1CCCc2cc(C(=O)CSc3nnc(CN4CCCC4=O)o3)ccc21 the results were Sa helicase inh 8.
For O=C(O)c1ccc(C(=O)c2cc(C(=O)O)ccc2C(=O)O)cc1 the results were MgrA-DNA mod -3.3 and Sa helicase inh 15.
`CC1=NN(c2ccc(Cl)cc2)C(=O)C1CCOC(=O)c1nn(-c2ccccc2)nc1C` (configuration not stated) gave Sa helicase inh 9.
CCC(=O)Nc1ccccc1C(=O)NCC1CCCO1 (configuration not stated) was read as MgrA-DNA mod 3.9 and Sa helicase inh 11.
For Nc1nc(-c2ccc3c(c2)CCCC3)cc(C(F)(F)F)n1 the results were MgrA-DNA mod 1.4.
For N#Cc1ccc(-c2ccc(OCC3CNC(=O)O3)cc2)cc1 (configuration not stated) the results were MgrA-DNA mod -1.6 and Sa helicase inh 6.
For O=C(CCCSc1nc(-c2ccco2)cc(C(F)(F)F)n1)Nn1cnnc1 the results were MgrA-DNA mod -1.0 and Sa helicase inh 2.
`COC(=O)CNC(=O)c1n[nH]c(=O)c2ccccc12` gave Sa helicase inh 6.
Screening COc1ccc(C)cc1-n1nnnc1Sc1nnnn1-c1ccccc1 returned Sa helicase inh 11.
`COc1ccc(C(=O)N(c2ccccc2)C2C=CS(=O)(=O)C2)cc1` (configuration not stated) gave Sa helicase inh 4.
Screening COc1ccc(N2CCN(C(=O)c3cc4ccccn4n3)CC2)cc1 returned Sa helicase inh 9.
CC(Sc1nnc(CNc2cccc(Cl)c2)n1CCc1ccccc1)C(=O)O (configuration not stated) was read as MgrA-DNA mod 2.0 and Sa helicase inh 8.
CCOc1ccc(NC(=O)c2ccc3c(c2)N(Cc2ccc(C)cc2)CCS3)cc1 was read as MgrA-DNA mod 2.6 and Sa helicase inh 8.
For C=CCNc1nc(-c2ccccc2)nc(-c2ccccc2)c1C#N the results were MgrA-DNA mod 3.5.
Cc1cc(C)nc(NS(=O)(=O)c2ccc(NC(=O)c3ccc(S(=O)(=O)N4CCCCC4)cc3)cc2)n1 was read as MgrA-DNA mod 3.3.
Screening CC1=CCC2C(=O)N(c3cccc(C(F)(F)F)c3)C(=O)C2C1 (configuration not stated) returned MgrA-DNA mod 1.4 and Sa helicase inh 1.
O=C(Cn1cnc2c(nnn2Cc2ccc(Cl)cc2)c1=O)N1CCCc2ccccc21 was read as MgrA-DNA mod -1.8 and Sa helicase inh 7.
Screening Cc1cc(C)nc(SCC(=O)c2ccc(O)cc2O)n1 returned Sa helicase inh -27.
For CC1Cc2ccccc2N1S(=O)(=O)c1cccc(C(=O)NCc2ccco2)c1 (configuration not stated) the results were Sa helicase inh -8.
`COc1ccc(N2CCN(C(c3cccs3)C(C)NC(=O)c3ccccc3OC)CC2)cc1` (configuration not stated) gave MgrA-DNA mod -0.9 and Sa helicase inh 18.
Screening COC(=O)c1cnc(NNS(=O)(=O)c2ccccc2)nc1C(F)(F)F returned MgrA-DNA mod -2.2.
Screening O=C(Oc1ccc2ccc(=O)oc2c1)N1CCOCC1 returned Sa helicase inh 10.
`Cc1cccc(OCC(O)Cn2cnc3ccccc32)c1` (configuration not stated) gave Sa helicase inh -6.
C=C(C)CSc1nc2c(C)cccc2[nH]1 was read as Sa helicase inh -14.
O=C(Nc1cccc(CO)c1)C(F)(F)F was read as Sa helicase inh 3.
N#Cc1nc2ccccc2[nH]1 was read as MgrA-DNA mod 3.9 and Sa helicase inh 14.
Screening CN(C)CCSc1nnc2sc3ccccc3n12 returned Sa helicase inh 7.
For CN(C)S(=O)(=O)c1ccc(=O)n(CC(=O)Nc2ccc3[nH]c(=O)[nH]c3c2)c1 the results were Sa helicase inh -9.
Screening CCn1c(O)c(C=NCc2cccs2)c(=O)n(CC)c1=S returned MgrA-DNA mod 3.5 and Sa helicase inh 10.
For Brc1ccc(-n2cccc2)cc1 the results were MgrA-DNA mod -2.5.
Screening CC1(C)O[C@@H]2[C@@H](CO[C@@]3(COS(N)(=O)=O)OC(C)(C)O[C@@H]23)O1 returned MgrA-DNA mod 0.8.
`Nc1ncc(S(=O)(=O)Cc2cccs2)c(N)n1` gave MgrA-DNA mod -1.0.
CS(=O)(=NS(=O)(=O)c1cc(S(=O)(=O)c2ccccc2)cs1)c1ccc(Cl)cc1 (configuration not stated) was read as MgrA-DNA mod -0.4.

Among those listed so far, these contain an NH in an aromatic ring:
`O=C(CSc1nnc(-c2ccc(Cl)cc2Cl)n1Cc1ccco1)c1ccc[nH]1` gave Sa helicase inh -5.
For CC(NC(=O)CSc1n[nH]c(N)n1)C1CC2CCC1C2 (configuration not stated) the results were Sa helicase inh -9.
Cc1[nH]nc2c1C(c1cccc3ccccc13)CC(=O)N2 (configuration not stated) was read as Sa helicase inh 21.
Screening O=C(COC(=O)c1ccc[nH]c1=O)NCC12CC3CC(CC(C3)C1)C2 returned Sa helicase inh -9.
`O=c1[nH]cc(COCc2ccccc2)c(=O)[nH]1` gave MgrA-DNA mod -2.8 and Sa helicase inh 13.
Screening COc1cc(Cl)cc(/C=N/n2c(-c3ccc(C)cc3)n[nH]c2=S)c1O returned MgrA-DNA mod 1.7 and Sa helicase inh 14.
CCCc1nc(=S)[nH][nH]1 was read as Sa helicase inh -15.
`COC(=O)CNC(=O)c1n[nH]c(=O)c2ccccc12` gave Sa helicase inh 6.
C=C(C)CSc1nc2c(C)cccc2[nH]1 was read as Sa helicase inh -14.
N#Cc1nc2ccccc2[nH]1 was read as MgrA-DNA mod 3.9 and Sa helicase inh 14.
For CN(C)S(=O)(=O)c1ccc(=O)n(CC(=O)Nc2ccc3[nH]c(=O)[nH]c3c2)c1 the results were Sa helicase inh -9.
